# Source: PubChem BioAssay (National Center for Advancing Translational Sciences (NCATS))
# ClpP mod: qHTS Assay for Activators of ClpP | ATP-dependent Clp protease proteolytic subunit (Bacillus subtilis (strain 168)), P80244 | purified B. subtilis ClpP, FRET peptide cleavage, 20 min | Potency, µM (doses to about 57.5 µM), for inactives: at the highest dose activity change, negative = active | 1.9% of 340,000 active; active = well fitted falling curve with a large enough effect; inconclusive = small, poorly fitted or top-dose-only effect; inactive = no such curve, though single readings can be large or run the other way; note: potency is the fitted concentration of half-maximal effect; the source files actives as falling curves though it sought activators and does not explain the sign; nearly all actives have a fitted effect of over 65% in size; many hits overshoot -100%
# Target sequence (P80244 whole entry, looked up): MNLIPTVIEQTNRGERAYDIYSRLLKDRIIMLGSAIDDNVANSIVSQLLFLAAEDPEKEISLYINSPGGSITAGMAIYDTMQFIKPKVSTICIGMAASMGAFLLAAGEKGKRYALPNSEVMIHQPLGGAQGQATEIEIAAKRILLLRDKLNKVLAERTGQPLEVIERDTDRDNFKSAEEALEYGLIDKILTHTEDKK
#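 Purified B. subtilis ClpP, 10 microg/mL final in Tris/HCl pH8 with KCl, BSA, glycerol and Tween-20, cleaved an Abz/nitrotyrosine-quenched decapeptide. Fluorescence (ex 320, em 430) was read at 0 and 20 min at room temperature. Delta was normalized to 5.8 microM ADEP and DMSO/no-enzyme controls.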
# Sfp inh: qHTS Assay for Inhibitors of Bacillus subtilis Sfp phosphopantetheinyl transferase (PPTase); Biochemical Sfp PPTase activity, qHTS; Potency, µM, for inactives: max response, negative = inhibition, hits mostly inhibitors; 3.5% of 310,000 active; AID 1490, 2009; active = well fitted inhibition curve with a large enough effect; inconclusive = small, poorly fitted or top-dose-only effect, or another doubt; inactive = no such curve, though single readings can be large or run the other way;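 note: the enzyme is Sfp with the accession as filed and its product quenches rhodamine fluorescence; potency is the fitted concentration of half-maximal effect; 0% = enzyme reaction without inhibitor and -100% = no enzyme wells; top concentration of the series not given in the record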
#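 Fluorescence-quenching assay: 15 nM Sfp-PPTase preincubated 15 min at room temperature with compound, then 5 uM rhodamine-CoA and 12.5 uM BHQ-2-labelled YbbR peptide added. Fluorescence (ex 525/em 598 nm) read at start and after 30 min; difference gives rate.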
# PINK1 expr mod: A Quantitative High throughput Screen to Identify Chemical Modulators of PINK1 Expression. PINK1 immunofluorescence, high-content cytometry, 24 h. Potency, µM (series often up to 76.6 µM), without a hit: at the highest dose activation (PINK1 increase), hits mostly activators. 0.2% of 410,000 active; active = well fitted activation curve with a large enough effect; inconclusive = small, poorly fitted or top-dose-only effect; inactive = flat fitted curve, though single readings scatter; cell line not stated here;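 note: potency is the fitted concentration of half-maximal effect; % of control where 0% means no effect; nearly all actives have a fitted effect of over 65% in size; a mitochondrial uncoupler was the plate control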
#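 Fluorescence from anti-PINK1 antibody, together with nuclear and cell stains, was scanned on a laser-scanning cytometer. Before staining, stable-line cells were incubated 24 hours with compounds at 5 concentrations; primary antibody 12 h at 10 degrees C.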
# TRPV1 PAM: HTS Assay for Compounds that Act as Potentiators of the Vanilloid Receptor 1 | 0.02% of 320,000 active | potentiation, % at 8.33 µM | AID 540277, 2011 | TRPV1-expressing cells, Fluo-8 calcium influx, capsaicin EC20 potentiation; host cell line not named in the record; control for the full effect not named in the record; active means potentiation above 80%; inconclusive means 30% to 80%; inactive means below 30%; note: 0% is about no effect
#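 TRPV1-expressing cells were cultured overnight at 35.5C and loaded with Fluo-8 calcium dye for 40 to 90 min at room temperature. After a 10 s baseline, compound was added and calcium influx was read kinetically for 3 min (ex 480/em 520 nm).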
# Menin-MLL FL inh: qHTS Assay for Inhibitors Targeting the Menin-MLL Interaction in MLL Related Leukemias: Competition With Fluorescein Labeled MLL-derived Peptide | Fluorescence polarization, fluorescein-MLL peptide displacement from menin | FP activity change, % at 61.4 µM | AID 1766, 2009 | 290,000 tested, under 10 active; inconclusive = falling polarisation curve, or a change in total fluorescence; inactive = total fluorescence flat and polarisation flat or rising; no compound was filed as active; the % refers to the polarisation; negative = inhibition;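 note: % of control where 0% means no effect; inhibitors lower the polarisation; unlabelled MLL peptide was the positive control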
# TRPML1 agonist: qHTS for Agonists of the Human Mucolipin Transient Receptor Potential 1 (TRPML1); activation, % (test concentration not listed); AID 624414, 2012; Mucolipin-1 (Homo sapiens), Q9GZU1; 0.12% of 410,000 active; TRPML1-expressing cells, Ca2+ dye fluorescence, FDSS; host cell line not named in the record; reference of the full effect not given here; in the data active = activation above about 50%; inconclusive = about 30% to 50%; inactive = below about 30%; note: 0% is about no effect; the text of the record puts the active cut at 80%
# Target sequence (Q9GZU1 whole entry, looked up): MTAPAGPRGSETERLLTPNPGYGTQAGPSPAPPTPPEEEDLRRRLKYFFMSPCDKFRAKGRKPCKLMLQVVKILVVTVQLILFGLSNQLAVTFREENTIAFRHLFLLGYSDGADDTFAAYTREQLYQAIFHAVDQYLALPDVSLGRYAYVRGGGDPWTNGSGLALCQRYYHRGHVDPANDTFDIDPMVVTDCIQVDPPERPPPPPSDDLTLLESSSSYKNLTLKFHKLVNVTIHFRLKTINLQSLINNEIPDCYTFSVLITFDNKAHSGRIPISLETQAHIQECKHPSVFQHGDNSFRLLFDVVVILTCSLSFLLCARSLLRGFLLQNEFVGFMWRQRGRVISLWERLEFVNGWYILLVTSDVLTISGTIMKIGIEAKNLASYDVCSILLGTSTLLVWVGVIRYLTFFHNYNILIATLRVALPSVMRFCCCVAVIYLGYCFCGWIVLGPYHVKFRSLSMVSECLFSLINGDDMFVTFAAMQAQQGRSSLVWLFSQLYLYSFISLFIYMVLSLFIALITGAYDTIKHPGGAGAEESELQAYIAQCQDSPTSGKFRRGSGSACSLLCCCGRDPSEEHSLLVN
#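 Tetracycline-induced TRPML1-DL cells are seeded and incubated overnight before loading with a no-wash Ca2+ dye and quencher. Agonist activity is taken from the 110 s fluorescence read following compound pin-transfer on an FDSS, before EC80 54-4 challenge.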
# TRPML1 inh: qHTS for Inhibitors of the Human Mucolipin Transient Receptor Potential 1 (TRPML1) | TRPML1-inducible cells, Ca2+ dye fluorescence, FDSS; stronger effect = lower value; inhibition of EC80 agonist-evoked calcium signal | 0.02% of 390,000 active | activity change, negative = inhibition, % (no concentration beside the values); in the data active means activity change below about -50%; inconclusive means about -30% to -50%; inactive means above about -30%;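 note: stimulus is agonist 54-4 at its EC80 concentration; % is set by controls: 0 for no effect and ±100 for the full control effect; compound concentration not given in the record; the text of the record puts the active cut at -80%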
#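 Calcium fluorescence in TRPML1-DL cells induced overnight with Tet: a 110 s read after compound pin addition, then a 110 s antagonist read after challenge with 54-4 at 4 uM final (EC80).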
# An asterisk follows results filed as active; ? = inconclusive; · = not tested or not shown; [ ] = another dose, or the depositor's remark.
SMILES	ClpP mod	Sfp inh	PINK1 expr mod	TRPV1 PAM	Menin-MLL FL inh	TRPML1 agonist	TRPML1 inh
CCCCN1CCCCC1(C)C(=O)NCc1cccc(OC)c1 (configuration not stated)	0.0%	·	-0.5%	·	·	-0.4	·
Cc1ccc2c(c1)nnn2C1CCN(C(=O)C23CC4CC(CC(C4)C2)C3)CC1	?	-2%	-0.4%	-14	5.4	-0.1	-3
CCOC(=O)C1=C(C)N=c2s/c(=C\c3ccc(OCC(=O)O)cc3)c(=O)n2C1c1ccccc1OC (configuration not stated)	-1.0%	-13%	-1.0%	3	?	·	·
Clc1ccc(Nc2c3c(nc4ncnn24)CCC3)cc1	-0.2%	11%	1.4%	?	5.0	-1.2	-4
CCCC(=O)Nc1nc(C)c(-c2csc(Nc3ccccc3OC)n2)s1	-5.6%	-27%	6.3%	-10	-0.6	0.6	-9
COc1cc(OC)c(NC(=O)c2nn(-c3ccc(C)cc3)c(=O)c3c2c2ccccc2n3C)cc1Cl	-0.6%	·	2.9%	·	·	0.7	1
Cc1nn(C(=O)c2c([N+](=O)[O-])cnn2C)c(C)c1Cl	1.0%	4%	4.8%	8	2.9	-0.1	24
N/C(=N\S(=O)(=O)c1cccs1)c1ccccc1	-0.7%	7%	2.2%	-4	1.7	-0.6	-15
CN(CC(=O)Nc1ccc(Cl)cc1)c1ccc(S(=O)(=O)N2CCCCC2)cc1[N+](=O)[O-]	-1.9%	7%	1.2%	9	-0.3	1.6	6
CC(C)n1c(=O)c2ccccc2n1Cc1cn(-c2ccc(Cl)cc2)nn1	5.2%	·	1.5%	·	·	-0.6	·
CC(C)C(=O)NN(C(=O)C(C)C)c1nc2ccccc2s1	0.7%	22%	-0.4%	4	1.7	-0.6	-2
Cc1cccn2c(CN3CCCN(C=O)CC3)c(C(=O)N(C)CCc3ccccc3)nc12	-2.8%	-4%	-0.1%	?	0.5	1.4	21
O=C(c1cc2cc(Br)ccc2oc1=O)N1CCCC1	-14%	13%	11%[38.3 µM]	-4	1.4	0.3	32
COc1cccc(NC(=O)c2cn(C)c(=O)c3cc(OC)c(OC)cc23)c1	0.9%	26%	3.2%	5	0.0	-0.8	-11
CC1Cc2ccccc2N1C(=O)C1CC(=O)N(c2ccccc2)C1 (configuration not stated)	·	4%	-1.6%	-12	-2.1	-0.2	20
CCCNC(=O)c1ccc2c(c1)CCN2S(C)(=O)=O	·	-10%	-0.9%	2	-3.1	0.4	-14
Cc1ccc(CNC(=O)C2CC3Cn4c(nc5cc6ccccc6cc54)C3N2C)o1 (configuration not stated)	-19%	-7%	-0.8%	-2	2.8	0.8	5
COc1ccc(Cl)cc1NC(=O)Cc1ccc(NC(=O)N2CCCCc3ccccc32)cc1	-1.2%	·	-0.4%	·	·	0.1	32
COC(=O)Cn1c(SCCOc2ccccc2Cl)nc2ccccc21	-1.6%	·	1.7%	·	·	3.9	7
Cc1cc(C)cc(-n2cc(C(=O)O)c(=O)cc2C)c1	·	2%	1.4%	-7	-0.2	0.2	25
COc1ccc(NC(=O)Cn2c(=O)n(CCCC(=O)NCc3ccccc3Cl)c(=O)c3ccccc32)c(OC)c1	-3.8%	·	0.8%	·	·	-0.1	2
Cc1cc(C)n(-c2nc3c(c(=O)[nH]c(=O)n3C)n2C(C)C)n1	-0.6%	9%	1.9%	-12	5.7	-1.0	-6
CCOC(=O)c1c(C=O)c2ccccc2n1CC	-1.1%	9%	-0.1%	24	-0.4	1.8	5
COc1ccc2c3c(cccc13)OCC2=O	-8.7%	-1%	-0.3%	9	0.8	1.2	18
CCOC(=O)c1c2c(n3ccccc13)C(=O)c1ccccc1C2=O	-1.4%	·	1.8%	·	·	8.3	·
Cc1cccc(C)c1NC(=O)C1c2cccc[n+]2CC(=O)N1Cc1ccc2c(c1)OCO2 (configuration not stated)	-2.6%	-8%	3.6%	30	-1.1	1.3	6
CC(C)COP(=O)(c1ccc(N(C)C)cc1)C(O)c1ccccc1F (configuration not stated)	-2.8%	14%	·	12	-4.1	-0.5	0
Cc1ccc(C)c(C2=CSC3=NS(=O)(=O)CCN23)c1	-0.8%	15%	-2.2%	-10	-3.3	-0.3	-6
O=S(=O)(Nc1cccnc1)c1ccc(Br)c2ccccc12	1.2%	5%	-0.5%	2	-1.0	·	·
Cc1ccc(N=C2NC(=O)CS2)cc1	-2.0%	19%	-2.0%	-2	3.3	0.7	27
COc1ccc(-c2cc(C(=O)Nc3cc(C(F)(F)F)ccc3Cl)no2)cc1	-2.5%	·	2.8%	·	·	0.0	41
c1ccc(CCn2nnnc2C(c2cccs2)N2CCOCC2)cc1 (configuration not stated)	-1.7%	-1%	1.4%	-2	5.0	0.2	-1
COc1cccc(NC(=O)COC(=O)c2ccccc2SCC(=O)N2CCCC2)c1	-5.0%	·	2.3%	5	·	0.0	-11
Cc1cc(OCCOc2cccc3cccnc23)cc(C)c1Cl	18%	?	9.0%	5	2.5	5.2	-12
Oc1ccc(C[C@H]2CNCCN2CC2(c3ccccc3)CC2)cc1	-2.7%	·	0.5%	-10	·	0.8	3
Cc1nc2sc(C(c3ccccc3)N3CCN(C)CC3)c(O)n2n1 (configuration not stated)	-0.2%	-5%	8.4%	?	-0.1	0.0	-3
COc1ccc(Cl)cc1C(=O)N1CCN(c2ccccn2)CC1	-12%	6%	3.9%	11	4.6	0.4	-5
CC(Sc1nnnn1C)C(=O)Nc1ccccc1-c1ccccc1 (configuration not stated)	-1.0%	10%	·	-16	-5.1	0.3	-16
O=C(CNS(=O)(=O)c1ccccc1)N1CCN(C(=O)c2ccco2)CC1	?	·	2.2%	-4	·	-0.2	-2
Cc1ccccc1N1CCN(C(=S)c2ccc([N+](=O)[O-])cc2)CC1	?	?	-0.4%	-28	5.4	1.8	76
COCCCNS(=O)(=O)c1cccc(S(=O)(=O)c2cccc(S(=O)(=O)NCCCOC)c2)c1	-1.1%	12%	-1.0%	-4	-0.2	·	·
O=C(NC(=S)Nc1ccc(NC(=O)c2ccco2)cc1)c1ccccc1	0.2%	-21%	17%	-1	5.8	-0.3	-3
N#Cc1c(SCC(=O)N2CCOCC2)nsc1SCC(=O)N1CCOCC1	-0.3%	14%	-0.7%	-4	0.4	-0.3	45
CCOC(=O)c1cn(Cc2ccc(C)cc2)nn1	-3.4%	20%	2.6%	11	-2.5	0.7	5
CCCCOc1ccc(-c2n[nH]c(=S)n2Cc2ccccc2)cc1	·	1%	14%	-2	-1.6	3.3	17
O=C(Nc1cccc(C(F)(F)F)c1)C1CCN(S(=O)(=O)c2cccnc2)CC1	3.3%	14%	3.1%	1	1.9	1.2	22
COC(=O)c1cn(C(=O)c2ccccc2)c2ccccc12	0.4%	-6%	-0.4%	17	0.9	1.8	-3
COc1ccc2c(c1)c1nc(SCC(C)C)n(CCO)c(=O)c1n2C	-18%	20%	6.1%	-10	-1.8	-0.5	8
COc1cc(NC(=O)Cn2nnc(-c3ccc(C(F)(F)F)cc3)n2)c(C(=O)O)cc1OC	1.7%	·	1.2%	·	·	-0.8	-20
Cc1cc2cc(CNC(=O)c3ccc(S(=O)(=O)N4CCCC4)cc3)ccc2n1C	9.6%	-6%	1.0%	6	-24	-0.5	9
CN(C)CC/C=C1\c2cc(Cl)ccc2Sc2cc(F)c(F)cc21	-3.8%	·	1.3%	·	·	2.5	34
CCOc1ccc(N(CC(=O)NC2CCCC2)C(=O)CCC(=O)Nc2nccs2)cc1	·	13%	0.4%	7	2.4	0.0	-1
O=C(NNC(=O)c1ccncc1)Nc1cc(Cl)ccc1Cl	·	·	0.1%	·	·	-0.7	-11
COc1ccc(CNCc2ccccc2[N+](=O)[O-])cc1OC	-2.0%	?	-1.3%	-27	-8.3	0.2	-16
Cc1ccc(NC(=O)COS(=O)c2ccc(C)cc2)cc1 (configuration not stated)	0.3%	11%	0.2%[38.3 µM]	3	0.6	4.5	31
CN(C)S(=O)(=O)c1cccc(-c2nn(-c3ccccc3)cc2/C=C2\SC(=S)N(CC(=O)O)C2=O)c1	-2.0%	56µM*	-0.5%	-6	6.6	·	·
NC(=O)c1ccc(NC(=O)CSc2nnc(-c3ccccn3)n2N)cc1	0.7%	-12%	-0.8%	2	-4.9	0.0	-11
O=C(NC1CCCCC1)C1CCN(c2ncccn2)CC1	·	36%[activator]	0.3%	19	0.0	1.0	27
Cc1ccc(C)c(NC(=O)C2COc3ccccc3O2)c1 (configuration not stated)	0.3%	-5%	1.9%	0	7.8	-0.8	-9
CCOC(=O)c1ccc(NC(=O)c2c(N3CCCC3=O)c3cc(OC)ccc3n2C)cc1	-8.1%	·	-1.2%	·	·	3.0	10
O=C(NCCc1nnc2ccc(NCc3ccc(Cl)cc3)nn12)c1ccccc1	·	3%	14%	-5	1.0	0.7	-5
COC(=O)c1c(-c2ccc(C)cc2)csc1NC(=O)C1CC=CCC1C(=O)O (configuration not stated)	16µM*	-1%	1.2%	6	1.2	0.5	20
Cc1ccc(S(=O)(=O)N2CCOCC2)cc1C(=O)N1CCN(S(=O)(=O)c2ccccc2F)CC1	-4.1%	·	-0.8%	·	·	-0.2	3

# An excerpt from above in order of molecular weight, falling.
SMILES	ClpP mod	Sfp inh	PINK1 expr mod	TRPV1 PAM	Menin-MLL FL inh	TRPML1 agonist	TRPML1 inh
COc1cccc(NC(=O)COC(=O)c2ccccc2SCC(=O)N2CCCC2)c1	-5.0%	·	2.3%	5	·	0.0	-11
O=C(NC(=S)Nc1ccc(NC(=O)c2ccco2)cc1)c1ccccc1	0.2%	-21%	17%	-1	5.8	-0.3	-3
COc1ccc(Cl)cc1C(=O)N1CCN(c2ccccn2)CC1	-12%	6%	3.9%	11	4.6	0.4	-5
